TRPML1 inh: inhibitors of human TRPML1 channel; activity change, negative = inhibition, % (no concentration beside the values); 390,000 compounds, 0.02% hits; Q9GZU1; TRPML1-inducible cells, Ca2+ dye fluorescence, FDSS; active compounds read low; inhibition of EC80 agonist-evoked calcium signal; in the data active means activity change below about -50%; inconclusive means about -30% to -50%; inactive means above about -30%;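 further: stimulus is agonist 54-4 at its EC80 concentration; on the % scale 0 is the no-effect control and ±100 the full control effect; compound concentration not given in the record; the text of the record puts the active cut at -80%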
Target sequence (Q9GZU1 whole entry, looked up): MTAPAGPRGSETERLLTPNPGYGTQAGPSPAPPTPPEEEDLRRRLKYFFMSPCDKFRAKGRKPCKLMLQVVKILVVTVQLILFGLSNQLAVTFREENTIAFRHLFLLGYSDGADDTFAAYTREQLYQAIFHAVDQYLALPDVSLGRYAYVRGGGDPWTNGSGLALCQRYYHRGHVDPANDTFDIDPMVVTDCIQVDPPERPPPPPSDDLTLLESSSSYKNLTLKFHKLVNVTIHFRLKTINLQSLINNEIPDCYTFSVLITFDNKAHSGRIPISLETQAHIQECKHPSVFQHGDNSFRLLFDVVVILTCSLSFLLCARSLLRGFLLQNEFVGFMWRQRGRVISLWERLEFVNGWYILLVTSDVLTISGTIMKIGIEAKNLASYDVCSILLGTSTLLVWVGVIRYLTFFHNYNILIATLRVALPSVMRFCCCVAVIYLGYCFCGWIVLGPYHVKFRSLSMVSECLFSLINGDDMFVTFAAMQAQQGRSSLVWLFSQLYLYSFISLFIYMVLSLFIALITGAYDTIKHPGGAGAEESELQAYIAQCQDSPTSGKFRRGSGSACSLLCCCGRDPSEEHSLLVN
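Calcium fluorescence in TRPML1-DL cells induced overnight with Tet: a 110 s read after compound pin addition, then a 110 s antagonist read after challenge with 54-4 at 4 uM final (EC80).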
Six1-Eya2 blk: inhibitors of human Six1/Eya2 interaction | AlphaScreen GST-Six1/His-Eya2 binding, biochemical; active compounds read low; control for the full effect not named in the record | activity change, % (concentration not given with the values) | 360,000 compounds, 0.56% hits | AID 651725; in the data active = activity change below about -65%; inconclusive = about -30% to -65%; inactive = above about -30%; further: on the % scale 0 is the no-effect control and ±100 the full control effect
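AlphaScreen with GST-Six1 and His-Eya2 (5X mix: 250 nM and 500 nM), glutathione donor and nickel acceptor beads; buffer 50 mM Tris pH 8.0, 300 mM NaCl, 1 mM TCEP; 1 h at 37 C in the dark.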
PINK1 modulator: modulators of PINK1 expression; Potency, µM (series often up to 76.6 µM), inactives show at the highest dose activation (PINK1 increase), hits mostly activators; PINK1 immunofluorescence, high-content cytometry, 24 h; 410,000 compounds, 0.2% hits; AID 624263; active = well fitted activation curve with a large enough effect; inconclusive = small, poorly fitted or top-dose-only effect; inactive = flat fitted curve, though single readings scatter; cell line not stated here;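 further: potency means the concentration at half of the fitted maximal effect; % of control where 0% means no effect; nearly all actives have a fitted effect of over 65% in size; a mitochondrial uncoupler was the plate control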
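Decision-based qHTS: stable cells, 24 h exposure to five compound concentrations, CCCP as control. Fixed cells stained for PINK1 plus nuclear, mitochondrial and cell markers, cytometer read.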
D2 agonist: agonists of human D2 dopamine receptor (beta-arrestin); AID 624465; 360,000 compounds, 0.084% hits; P14416; activation, % (concentration not given with the values); DiscoveRx PathHunter D2 beta-arrestin, luminescence, 90 min; 100% = 57 uM dopamine signal; in the data active = activation above about 40%; inconclusive = about 15% to 40%; inactive = below about 15%; further: the text of the record calls up to 30% inactive
Target sequence (P14416 whole entry, looked up): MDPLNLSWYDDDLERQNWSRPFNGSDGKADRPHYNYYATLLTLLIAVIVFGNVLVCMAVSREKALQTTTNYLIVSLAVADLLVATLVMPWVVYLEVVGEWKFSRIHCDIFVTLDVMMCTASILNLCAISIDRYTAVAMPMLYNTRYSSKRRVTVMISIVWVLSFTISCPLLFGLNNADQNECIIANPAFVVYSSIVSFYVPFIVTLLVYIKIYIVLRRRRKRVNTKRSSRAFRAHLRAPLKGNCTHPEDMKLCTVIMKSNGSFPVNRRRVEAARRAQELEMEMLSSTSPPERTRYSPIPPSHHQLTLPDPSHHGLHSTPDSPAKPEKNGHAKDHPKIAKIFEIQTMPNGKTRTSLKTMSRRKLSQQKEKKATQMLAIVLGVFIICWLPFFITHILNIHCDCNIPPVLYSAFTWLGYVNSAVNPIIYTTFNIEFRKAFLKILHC
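Agonist mode: compounds alone added to overnight-plated D2 PathHunter cells for 90 min at 37 C, with 57 uM final dopamine (EC100) defining full response. Beta-arrestin recruitment detected by chemiluminescent reagent, read after 1 h at ambient temperature.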
D2 PAM: human D2 receptor positive allosteric modulation; P14416; DiscoveRx D2 beta-arrestin cells, luminescence, 90 min; 100% = 57 uM dopamine signal; potentiation, % (no concentration beside the values); 360,000 compounds, 0.23% hits; active = potentiation of 50% or more; inconclusive = 30% to 50%; inactive = 30% or less;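 further: compound concentration not given in the record; tested on top of an EC20 dose of dopamine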
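PathHunter D2 cells, attached overnight at 37 deg C, received compound in DMSO plus dopamine at EC20 (50 nM final) for 90 min at 37 deg C. Beta-arrestin recruitment was read as luminescence after 1 h with detection reagent at ambient temperature.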
TRPML1 agonist: activates the human TRPML1 channel; Q9GZU1; TRPML1-expressing cells, Ca2+ dye fluorescence, FDSS; host cell line not named in the record; reference of the full effect not given here; activation, % (test concentration not listed); 410,000 compounds, 0.12% hits; in the data active = activation above about 50%; inconclusive = about 30% to 50%; inactive = below about 30%; further: 0% is about no effect; the text of the record puts the active cut at 80%
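Cells: TRPML1-DL, 1X Tet inducer, ~16 h at 37 degrees C/5% CO2. Dye: ABD Ca8 no-wash + quencher, 45-90 min RT. Read: 10 s baseline, compound add, 110 s agonist phase; 54-4 EC80 (4uM final), 110 s antagonist phase.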
The depositor's hits bear a star; ? = inconclusive; · = no result given; & = joins results of further samples; [ ] = another dose, or the depositor's remark.

Below each SMILES – PINK1 modulator, D2 PAM, D2 agonist, TRPML1 inh, Six1-Eya2 blk, TRPML1 agonist
COc1ccc(Cn2cnc3c([N+](=O)[O-])c(C)c(C)cc32)cc1
→ -2.3%, 0.0, 0.0, -5.4, -0.8, 4.2
COc1ccc(-n2c(SCC(=O)Nc3ccccc3)nc(O)cc2=O)cc1
→ 0.1%, 11.4, 0.6, -9.8, 3.6, 0.6
COCCCn1c(C(=O)Nc2ccc3c(c2)OCO3)cc2c(=O)n3ccccc3nc21
→ 2.2%, -4.5, -1.4, -16.6, 4.7, 0.8
COc1ccc(OC)c(NC(=O)COC(=O)c2ccc(-n3cnnn3)cc2)c1
→ -0.6%, 20.5, -1.9, -7.3, 3.8, -0.9
Cc1ccc(S(=O)(=O)CCC(=O)Nc2ccccc2C)cc1
→ 2.3%, 2.8, -7.0, 10.2, -0.4, 0.8
C[C@@H](NC(=O)c1nc[nH]c1C(=O)NCCCCCNC(=O)OC(C)(C)C)c1ccccc1
→ 0.7%, 2.6, -2.6, 8.6, -9.0, 1.1
O=C(COC(=O)c1cc[n+]([O-])cc1)Nc1cccc(Br)c1
→ -2.3%, -16.2, 3.6, 17.4, 4.6, 2.8
O=C(N/N=C/c1ccc([N+](=O)[O-])cc1)c1cc2ccccc2o1
→ 8.9%, -9.1, -0.3, -10.9, 3.8, -0.5
COc1ccc(-c2csc(Cc3nnc(N4CCOCC4)n3-c3ccccc3)n2)cc1OC
→ -3.1%[38.3 µM], -10.7, -2.3, 16.8, -3.1, -0.1
Cc1nc(N(C)C)c2sc(=S)n(-c3ccccc3)c2n1
→ 5.7%, -0.4, 1.9, -11.7, -4.9, 1.9
CC1(C(=O)N/N=C/c2ccc3c(c2)OCO3)CC1(Br)Br (configuration not stated)
→ 0.8%, 0.8, -3.0, 4.9, -0.9, -0.1
COc1cc(Cl)cc(C2NC(=S)NC(c3ccccc3)=C2C(C)=O)c1OCC(=O)O (configuration not stated)
→ 0.2%, -12.6, -5.5, -5.0, -1.6, -1.0
O=C(Nc1ccc(S(=O)(=O)N2CCCCC2)cc1)C1CC(=O)N(c2ccc(Cl)cc2)C1 (configuration not stated)
→ 0.5%, 0.1, -0.2, -2.8, -2.6, 0.0
CCOc1ccc(CNC(=O)Cn2ccc3cc(S(=O)(=O)N4CCCCC4)ccc32)cc1
→ -0.3%, ·, ·, 4.4, ·, 1.8
CN1C(=S)SC(/[N+]([O-])=C/c2c(F)cccc2Cl)C1(C)C (configuration not stated)
→ 3.9%, -8.8, -5.1, -4.1, 6.6, -0.4
Cc1cccc(NC(=O)c2nc[nH]c2C(=O)N[C@H](C)c2ccccc2)c1
→ 0.6%, -65.5, -1.5, 16.4, -8.4, 2.7
COc1ccc(C(=O)NCC(=O)NCC(=O)OCC(=O)c2ccc(Br)cc2)cc1
→ 6.5%, -13.4, -2.5, 36.5, -3.1, -0.1
O=S(=O)(c1ccc(NC(=S)Nc2ccc3c(c2)OCO3)cc1)N1CCOCC1
→ -0.5%, -0.1, -6.4, 9.5, 1.2, -0.3
CCOc1ccc(-n2c(=S)sc3c(=O)[nH]c(SCC(=O)N4CCC(C)CC4)nc32)cc1
→ -5.3%[38.3 µM], 3.5, -1.0, 20.2, -2.9, 0.5
O=C1C=C(Nc2ccc(O)cc2)CC(c2ccco2)C1 (configuration not stated)
→ 11.1%, -4.0, -0.5, -4.1, -0.4, -0.5
CCn1c(C(C)NC(=O)c2cccs2)n[nH]c1=S (configuration not stated)
→ ?, -1.5, 0.6, 32.6, 2.5, 0.2
CC(C)(C)C1COc2ccccc2N1C(=O)c1ccccc1Cl (configuration not stated)
→ 7.7%, -0.9, -11.7, 16.3, 3.5, 0.3
C/C(=N\n1c(C)cc(C)c(C#N)c1=O)c1cccs1
→ 1.6%, 11.6, 0.2, 9.2, -2.5, -0.3
Cn1cc(CN(Cc2ccccc2)C[C@@H]2CCC(=O)N2)c(-c2ccccc2F)n1
→ 0.6%, -6.0, -6.0, 0.5, -5.0, 0.0
Cc1ccc(N2CC(C(=O)Nc3ccc(S(=O)(=O)NCC4CCCO4)cc3)CC2=O)cc1 (configuration not stated)
→ 1.6%, -12.5, -3.7, 3.0, -1.1, 0.9
O=C(O)c1ccccc1NS(=O)(=O)c1cccc(N=Nc2c(O)[nH]c(=S)[nH]c2=O)c1
→ -2.9%, -61.4, -3.8, 4.9, ?, -0.2
CCOC(=O)N1CCN(c2cc(=O)n(-c3ccc(OCC)cc3)c(=O)[nH]2)CC1
→ 5.8%[38.3 µM], -4.9, -1.8, -0.1, 3.6, -0.1
O=C1/C(=C/c2cccc([N+](=O)[O-])c2)Oc2cc(O)ccc21
→ 18.2%, 3.8, 9.6, 3.1, 5.2, 1.4
O=C(Nc1ccc(F)cc1)c1ccc(S(=O)(=O)NCc2cccnc2)cc1
→ 0.2%, -6.2, -0.1, -4.3, -2.9, -0.4
CN(C)CCCNc1nc2cc(-c3ccccc3)sc2c(=O)n1C
→ -0.3%, -13.0, -3.9, ·, -6.2, -0.5
O=C(NCc1ccccn1)Nc1cc(Cl)ccc1Cl
→ -0.3%, -32.0, -2.1, -2.1, -3.6, -0.4
O=C(Cn1cc(C(F)(F)F)cc(Cl)c1=O)NC1CCS(=O)(=O)C1 (configuration not stated)
→ 0.0%, -8.0, -5.3, -13.2, 1.5, -0.9
CC1(C)CC(=O)C2=C(C1)NC(=O)CC2c1ccccc1F (configuration not stated)
→ -1.1%, -23.8, -0.6, -4.1, -24.6, -0.1
CCCCSc1nc(C)[nH]c1[N+](=O)[O-]
→ -1.1%, -5.2, -0.3, 0.0, -1.0, -1.6
O=C(O)CC/C(=N/Nc1ncc(C(F)(F)F)cc1Cl)C(=O)O
→ 2.6%, -13.9, -1.8, 6.3, -13.2, 1.1
O=C(CSc1ncccn1)Nc1ccc(S(=O)(=O)N2CCCCC2)cc1
→ 0.3%, -3.4, 0.1, -7.9, 4.8, -0.1
CCn1ccnc1CN(C)C(=O)c1cc(COc2ccc(OC)c3ccccc23)on1
→ 5.2%, -4.0, 2.8, 27.7, -16.9, 1.9
O=C(N/N=C/c1cccs1)c1n[nH]c2c1CCC2
→ 6.3%, -3.2, 1.7, 2.5, -4.2, -0.4
CC(NC(=O)c1ccccc1)C(=O)NNC(=O)c1ccccc1Cl (configuration not stated)
→ 2.3%, -0.5, -2.1, -16.7, 8.6, -0.8
O=C(Nc1nnc(S(=O)(=O)Nc2ccccc2)s1)c1ccccc1Cl
→ 1.8%&-0.6%, -1.1, 0.1, 16.0&39.1, 1.3, -0.6&-0.6

Next section, overlapping the part above by four compounds.
Below each SMILES – PINK1 modulator, D2 PAM, D2 agonist, TRPML1 inh, Six1-Eya2 blk, TRPML1 agonist
CCn1ccnc1CN(C)C(=O)c1cc(COc2ccc(OC)c3ccccc23)on1
→ 5.2%, -4.0, 2.8, 27.7, -16.9, 1.9
O=C(N/N=C/c1cccs1)c1n[nH]c2c1CCC2
→ 6.3%, -3.2, 1.7, 2.5, -4.2, -0.4
CC(NC(=O)c1ccccc1)C(=O)NNC(=O)c1ccccc1Cl (configuration not stated)
→ 2.3%, -0.5, -2.1, -16.7, 8.6, -0.8
O=C(Nc1nnc(S(=O)(=O)Nc2ccccc2)s1)c1ccccc1Cl
→ 1.8%&-0.6%, -1.1, 0.1, 16.0&39.1, 1.3, -0.6&-0.6
OCC[C@H]1C[C@@H](O)[C@H](O)[C@]2(OCCc3ccccc32)O1
→ -0.7%, -12.6, -4.0, 26.8, 9.4, 0.0
COc1ccc(C2C(C(C)=O)=C(O)C(=O)N2c2nccs2)c(OC)c1 (configuration not stated)
→ -0.2%, -4.8, -0.9, 10.6, 0.2, 0.0
Cc1ccc(C(=O)C2CCN(CC(=O)NC3CCCCC3)CC2)cc1
→ -0.9%[38.3 µM], -15.8, 1.5, 6.7, 0.4, 0.0
O=C(OCc1cccc(F)c1)c1ccc2c(c1)-c1ccccc1C2=O
→ 0.2%[38.3 µM], -12.8, -2.9, 27.5, -14.8, 0.1
O=C(COc1ccc(Cl)cc1)OCc1ccc(Cl)cc1
→ 2.9%, -0.6, 2.2, 10.7, 75.9, -0.5
CC(=O)Nc1ccc(Nc2ncnc3sc4c(c23)CCCC4)cc1
→ -2.6%, ·, ·, 20.4, ·, 0.1
Cc1cc(-c2nnc(SCC(=O)Nc3ccc(Cl)cn3)n2N)n[nH]1
→ 1.4%, -7.1, -4.5, -7.6, -1.5, -0.3
CC(=O)NNC(=O)c1sc(=S)n2c1[nH]c(=O)c1sccc12
→ 3.3%, -8.4, -2.0, -0.4, -65.3*, 1.9
Cc1ccc(NC(=O)CSCC(=O)N(C)Cc2ccc(Cl)c(Cl)c2)cc1
→ 1.1%, -9.2, -2.0, 1.1, -4.5, 5.0
O=C(O)c1ccc(OC2CSC2)cc1
→ -1.8%, -1.7, -0.6, 3.3, -6.8, -1.2
COc1ccc(-c2csc(-c3c(N)c(C(=O)c4ccc(OC)c(OC)c4)n4ccccc34)n2)cc1
→ 1.5%, ·, ·, -20.2, ·, 1.4
Cc1ccc(-n2c(C)n[nH]c2=S)cc1
→ 1.5%, -23.9, -2.0, 5.0, 17.1, -0.1
Cc1ccc(C)c(S(=O)(=O)N2CCCC2CNC(=O)C(=O)NCc2ccco2)c1 (configuration not stated)
→ 3.0%, -22.4, -1.6, 18.6, -0.2, 0.7
CCCCC#Cc1ccc2c(c1)COc1c3ccccc3nn1-2
→ 1.7%, 1.6, -1.4, 26.0, 14.0, 1.5
CCOC(=O)c1c(C)nn(Cc2cccc(Cl)c2)c1N
→ ·, -15.3, -1.2, 27.7, -1.1, 0.4
CCN(C[C@H]1N[C@@](C)(C(=O)OC)[C@H]2C(=O)N(C)C(=O)[C@@H]12)S(=O)(=O)c1ccc(OC(F)(F)F)cc1
→ 2.1%, -7.0, -0.5, 1.5, 5.5, -1.1
CCO[C@@H]1OC(C(N)=O)=C[C@H](c2cn(C(C)=O)c3ccccc23)[C@H]1CCCO
→ -1.9%, -11.6, -4.0, -5.0, 0.1, -0.7
COc1cc(O)oc1C=Nc1ccccc1
→ -3.6%, 0.0, 4.1, 15.1, -2.2, 1.7
c1ccc(-c2csc3ncnc(N4CCOCC4)c23)cc1
→ 0.0%, 0.3, -3.5, 8.6, 9.3, 0.6
COC(=O)Cc1c(C)c2c(O)cc(C)cc2oc1=O
→ -1.7%, -17.3, -3.7, 11.1, 4.5, -0.9
O=C(N/N=C/c1ccoc1)c1ccc([N+](=O)[O-])cc1
→ 2.0%, -0.6, 0.0, -10.5, -2.1, -0.6
O=C(O)CSc1nc2c(c(=O)[nH]1)CCCC2
→ -1.4%[38.3 µM], -6.1, -3.8, 5.5, -0.6, 0.0
CCC1CCCCN1Cc1ccc(N)cc1 (configuration not stated)
→ 3.0%, -5.8, -3.7, -4.5, -2.0, -0.1
COc1ccccc1OCCNC(=O)Nc1ccc(Br)cc1
→ 4.1%, -18.3, -4.2, 21.4, 1.4, -1.4
COc1ccc(N2CCN(C(=O)CCc3cc(OC)c(OC)c(OC)c3)CC2)cc1
→ 1.6%, -6.7, -4.4, -19.3, -0.8, 1.9

Assay outcomes (PubChem)
